2A StopGo – lowers the luciferase signal of an FMDV 2A StopGo reporter | human cells with a luciferase reporter of 2A StopGo recoding; control for the full effect not named in the record | Potency, µM (highest dose often 57.9 µM), inactives show at the top dose signal change, negative = less light | actives 1.2% (n = 410,000); active = well fitted falling curve with a large enough effect; inconclusive = small, poorly fitted or top-dose-only effect; inactive = no such curve, though single readings can be large or run the other way; tested in HEK293T cells; note: % is set by controls: 0 for no effect and ±100 for the full control effect; nearly all actives have a fitted effect of over 45% in size; luciferase light after 4 h
RE007 growth inh – less growth of the S. pombe RE007 Vpr strain | S. pombe RE007 Vpr strain, BacTiter-Glo ATP luminescence, 24 h; control for the full effect not named in the record | actives 0.21% (n = 360,000) | Potency, µM (top dose mostly 92.2 µM), for inactives: top-dose activity change, negative = less growth; active = well fitted falling curve with a large enough effect; inconclusive = small, poorly fitted or top-dose-only effect; inactive = no such curve, though single readings can be large or run the other way;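 note: % is set by controls: 0 for no effect and ±100 for the full control effect; nearly all actives have a fitted effect of over 50% in size; the assay follows cell death caused by Vpr and the record does not say whether a fall means rescue or toxicity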
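Fission yeast strain RE007, carrying one chromosomally integrated HIV-1 vpr copy, was seeded at OD 0.01 in PMG+AL medium with 23 nL pinned compound. After 24 h at 30 °C and 99% humidity, viability was read by BacTiter-Glo luminescence.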
MARV entry inh – inhibitors of Marburg virus binding or cell entry. Marburg virus pseudotyped entry inhibition, cell reporter; control for the full effect not named in the record; about a third of the inactives were read at about 46 µM. Potency, µM (titrated, usually from 37.8 µM), for inactives: top-dose activity change, negative = inhibition, most hits filed as inhibitors. actives 1.8% (n = 300,000); active = well fitted inhibition curve with a large enough effect; inconclusive = small, poorly fitted or top-dose-only effect, or effect the other way; inactive = flat fitted curve, though single readings scatter; tested in HEK293 cells; about a fifth of its hits are not listed in these tables; note: % is set by controls: 0 for no effect and ±100 for the full control effect; luciferase read-out
NS1 function inh – inhibitors of influenza NS1 protein function; S. cerevisiae slowed by influenza A NS1, growth recovery by OD600; Potency, µM (doses to about 46.1 µM), for the others: at the top dose activity, positive = more growth; actives 0.4% (n = 270,000); AID 2326; active means well fitted rising curve with a large enough effect; inconclusive means small, poorly fitted or top-dose-only effect; inactive means no such curve, though single readings can be large or run the other way; note: nearly all actives have a fitted effect of over 50% in size
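Recovery from NS1-induced slow growth read by OD600 in budding yeast switched to galactose assay medium (pH 6.0, -URA) at 1:100 dilution. Compound 23 nl per well; the matching strain lacking NS1 serves as control.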
Cruzain Triton – blocks cruzain activity in presence of Triton detergent; purified cruzain, Z-FR-AMC fluorescence, 0.01% Triton; P25779; Potency, µM, for the others: max response, negative = inhibition, actives largely listed as inhibitors; AID 1478; actives 0.43% (n = 200,000);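 note: plate controls were neutral wells for no effect and buffer without enzyme for full effect; nearly all actives have a fitted effect of over 40% in size; top concentration of the series not given in the record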
Target sequence (P25779 123-467 limits assumed): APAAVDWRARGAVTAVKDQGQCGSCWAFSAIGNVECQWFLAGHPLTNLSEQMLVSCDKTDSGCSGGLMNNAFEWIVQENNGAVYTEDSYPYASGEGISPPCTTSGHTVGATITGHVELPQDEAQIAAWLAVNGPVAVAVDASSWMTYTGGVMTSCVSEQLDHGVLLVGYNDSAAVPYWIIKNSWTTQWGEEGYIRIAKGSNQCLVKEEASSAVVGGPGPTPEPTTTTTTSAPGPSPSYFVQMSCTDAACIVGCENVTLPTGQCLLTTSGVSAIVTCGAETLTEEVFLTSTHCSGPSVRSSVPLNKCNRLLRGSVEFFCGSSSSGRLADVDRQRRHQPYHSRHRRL
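Read-out: AMC fluorescence (360 nm excitation, 450 nm emission), four reads over 2 min, first-to-third difference used. Conditions: cruzain 1.5 nM, Z-FR-AMC 2 uM, pH 5.5 acetate, 5 mM DTT, 0.01% Triton X-100.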
Cruzain inh noDet – inhibitors of Trypanosoma cruzi cruzain without detergent | P25779 | purified cruzain, Z-FR-AMC fluorescence, no detergent | Potency, µM, without a hit: max response, negative = inhibition, usual class: inhibitors | actives 2.3% (n = 200,000) | AID 1476;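 note: plate controls were enzyme without inhibitor for no effect and buffer without enzyme for full effect; nearly all actives have a fitted effect of over 40% in size; top concentration of the series not given in the record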
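Purified cruzain at 1.5 nM, pre-incubated 15 min with compound at room temperature in 100 mM sodium acetate pH 5.5, 5 mM DTT, 0.00005% Triton X-100. Reaction started with 2 uM Z-FR-AMC; AMC fluorescence increase over 60 s gives rate.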
Lassa entry inh – blocks Lassa virus binding to or entry into cells | actives 1.2% (n = 300,000) | AID 540256 | Potency, µM (titrated, usually from 37.9 µM), without a hit: at the top dose activity change, negative = inhibition, hits mostly inhibitors | Lassa virus pseudotype entry inhibition, cell reporter; control for the full effect not named in the record; active means well fitted inhibition curve with a large enough effect; inconclusive means small, poorly fitted or top-dose-only effect, or effect the other way; inactive means flat fitted curve, though single readings scatter; tested in HEK293 cells; note: % is set by controls: 0 for no effect and ±100 for the full control effect; nearly all actives have a fitted effect of over 50% in size; luciferase read-out
SARS PLP yeast – blocks SARS-CoV papain-like protease in a yeast assay. S. cerevisiae expressing SARS-CoV PLpro, growth rescue; control for the full effect not named in the record. actives 0.19% (n = 330,000). Potency, µM (top dose mostly 32.9 µM), without a hit: at the top dose activity, positive = growth rescue. AID 485353; active means well fitted rising curve with a large enough effect; inconclusive means small, poorly fitted or top-dose-only effect; inactive means no such curve, though single readings can be large or run the other way; note: 0% is about no effect; nearly all actives have a fitted effect of over 55% in size; growth read by luminescence after 48 h
* = called active by the depositor; ? = inconclusive; nt = not tested or not shown; & = joins results of further samples; [ ] = another dose, or the depositor's remark. Unless noted, calls come from the whole dose curve; as a rule, active = well fitted curve in the direction sought with a large enough effect; inconclusive = small, poorly fitted or top-dose-only effect, or another doubt; inactive = no such curve, though single readings can be large; an effect the other way counts as inactive or inconclusive. Potency is the fitted concentration of half-maximal effect.

SMILES	RE007 growth inh	Lassa entry inh	NS1 function inh	Cruzain Triton	MARV entry inh	SARS PLP yeast	Cruzain inh noDet	2A StopGo
S=C(Nc1ccccc1)Nc1cc(Cl)ccc1Oc1ccccc1	-21%	-28%	?	-1.4%	-8%	-14%	0%	-15%
COc1ccc(-c2[nH]c(-c3ccc(OC)c(OC)c3)nc2SCC(=O)Nc2ccccc2)cc1	nt	-11%[46.1 µM]	nt	-6.6%	-14%[46.1 µM]	nt	?	-13%
COc1ccccc1CCNC(=O)C(=O)NCC(c1ccc2c(c1)OCO2)N1CCOCC1 (stereo not drawn)	nt	-5%[46.1 µM]	nt	-0.9%	nt	nt	3%	-23%
CCOC(=O)N1CCC(N2Cc3cccc(C(=O)Nc4ccc(CC)cc4)c3C2=O)CC1	16%	-16%	0%	-6.4%	?	1%	?	-15%
O=C1C2C3C=CC(C3)C2C(=O)N1c1ccc(Cc2ccncc2)cc1 (stereo not drawn)	6%	-20%	-5%	0.2%	?	-1%	1%	-24%
O=C(c1ccc(F)cc1)N(Cc1cccs1)C1CCS(=O)(=O)C1 (stereo not drawn)	-13%	nt	-4%	nt	nt	28%	nt	-14%
CC(C)c1ccc(/C=N/n2c(COc3ccccc3)n[nH]c2=S)cc1	?	1.6µM*	2%	nt	?	-1%	nt	-8%
CCOc1c(Cl)cc(/C=C/C(=O)N(CC)CC(=O)Nc2ccc(NC(C)=O)cc2)cc1OC	-10%	-25%	nt	nt	-10%	-1%	nt	-27%
COc1ccc(OC)c(CNC(=O)c2cc3c(=O)oc4ccc(C)cc4c3s2)c1	nt	-2%[46.1 µM]	nt	-0.6%	22%[46.1 µM]	nt	-11%	-18%
Cc1nn(C)c(C)c1N=Cc1c(O)ccc2ccccc12	-11%	-9%	-72%	-6.9%	-2%	-4%	?	-3%
CC1CCCC(C)N1C(=O)C1CCCCC1 (stereo not drawn)	nt	-1%	5%	-2.9%	-11%	-4%	0%	-23%
C=C(Cl)COC(=O)[C@H]1C2C=CC(C2)C1C(=O)O (stereo partly drawn)	-10%	1%	-2%	-0.1%	-8%[46.1 µM]	3%	4%	-18%
CC12CCC(=O)C=C1CCC1C2CCC2(C)C1CC1C3C(=O)N(Cc4ccccc4)C(=O)C3CC(=O)C12 (stereo not drawn)	6%	3%[46.1 µM]	nt	nt	?	nt	nt	-20%
O=C(C1CC1)N1CCc2cc(S(=O)(=O)N3CCN(c4ccccc4)CC3)ccc21	-5%	nt	2%	nt	nt	3%	nt	-29%
Cc1nc2nc(-c3ccco3)[nH]n2c(=O)c1C	17%	2%	2%	2.4%	15%	2%	-7%	28%
C/C(=N\NC(=O)CC1N=C(Cc2ccccc2)NNC1=O)c1ccc(Cl)cc1Cl (stereo not drawn)	10%	-21%	0%	3.6%	-9%[46.1 µM]	3%	-2%	-25%
O=C(CSc1nc2ccccc2[nH]1)N=Nc1c(O)[nH]c2ccccc12	1%	19%	0%	-14%	7%	2%	-3%	13%
Cn1cnnc1SCC(=O)NN1C(=O)NC(C)(c2ccccc2)C1=O (stereo not drawn)	4%	nt	6%	nt	nt	0%	nt	-13%
Cc1ccc(N2CCN(S(=O)(=O)c3cc(C(=O)Nc4cc(Cl)cc(Cl)c4)ccc3F)CC2C)cc1 (stereo not drawn)	nt	?	nt	1.2%	nt	nt	2.5µM*	?
COc1ccc(NC(=S)NCCSc2ccc(Cl)cc2)c(OC)c1	-3%	?	-8%	?	?	-30%	?	-8%
Cc1cccc(NC(=O)NNC(=O)c2ccc3ccccc3c2O)c1	-7%	nt	5%	nt	nt	?	nt	11%
CCn1c2ccccc2c2nnc(SCC(=O)NC(CC(C)C)C(=O)OC)nc21 (stereo not drawn)	11%	-11%	-16%	-7.9%	-1%	-2%	-21%	-23%
CC/C(=N/Nc1ccccc1Cl)c1cnnc(-c2ccccc2)n1	-16%	-7%	3%	-5.1%	1%	-4%	-16%	15%
O=C(c1ccc(-c2cccc(C(F)(F)F)c2)o1)N1CCCC(C(F)(F)F)C1 (stereo not drawn)	-11%	-19%	nt	nt	?	2%	nt	-8%
CCOc1ccccc1NC(=O)c1ccc2c(=O)n3c(nc2c1)CCCCC3	-9%	nt	-3%	nt	nt	1%	nt	-4%
Cc1cc(C)nc(NC(=O)c2c(-c3ccccc3Cl)noc2C)c1	0%	3%	-7%	-5.1%	?	2%	-9%	?
COC(=O)c1cc(NC(=O)Nc2ccc3snnc3c2)cc(C(=O)OC)c1	nt	?	nt	-2.3%	6%[46.1 µM]	nt	19%	0%
Cn1cc([N+](=O)[O-])c(C(=O)Nc2ccc3c(C(F)(F)F)cc(=O)oc3c2)n1	13%	nt	-27%	nt	nt	?	nt	-17%
O=C1c2ccccc2NC(c2cccc(F)c2)N1Cc1ccco1 (stereo not drawn)	14%	7%	-9%	-4.6%	2%	-2%	-3%	nt
COc1ccc(C2=NN(CC(=O)NCCCN(C)c3ccccc3)C(=O)CC2)cc1	nt	-16%[46.1 µM]	nt	-4.7%	nt	nt	2%	-16%
CCc1nn(CC(=O)NCCCN(CC)Cc2ccccc2)c(=O)c2cc3sccc3n12	-6%	-1%	5%	-1.1%	?	0%	-7%	nt
COc1cccc2sc3ccc(NCCC4CCCN4C)cc3c(=O)c12 (stereo not drawn)	-6%	nt	12%	nt	nt	0%	nt	9%
CCOC(=O)C(NC(=O)Nc1ccc(F)cc1)(OCC)C(F)(F)F (stereo not drawn)	1%	0%	7%	10%	-46%	3%	2%	-15%
CCCCOc1ccccc1C1CC(=O)Nc2cc(C)c(C)cc21 (stereo not drawn)	nt	-17%[46.1 µM]	nt	-16%	nt	nt	-10%	?
O=C(COc1ncnc2sccc12)N1CCc2ccccc2C1	2%	2%	-12%	1.4%	5%	1%	-9%	-15%
COC(=O)Nc1ncc(CN2CCc3ccccc3C2)s1	-11%	21%	-13%	-2.7%	-2%	3%	-6%	nt
COc1ccc(NC(=O)CSc2nc3c([nH]c4ccccc43)c(=O)n2C)c(OC)c1	-3%	13%	8%	nt	-18%	1%	nt	-15%
CCc1nnc(NC(=O)CSc2nc3cc4c(cc3cc2CC)OCCO4)s1	-3%	-14%	10%	-5.9%	-14%	-1%	?	13%
CCCOCc1ccc(O)c2ncccc12	40µM*	?	-79%	nt	?	-17%	nt	-18%
O=C(NCC(c1ccco1)N1CCc2ccccc2C1)c1ccc(Br)cc1 (stereo not drawn)	1%	17%	nt	nt	-8%	-1%	nt	-6%
COCCN(C(=O)COC(=O)CCc1nc2ccccc2s1)c1c(N)n(Cc2ccccc2)c(=O)[nH]c1=O	5%	13%	6%	nt	23%	0%	nt	-14%
C/C(=N\NC(=O)c1ccc(NS(=O)(=O)c2cccs2)cc1)c1ccc(Cl)cc1	-6%	3%	7%	-7.0%	-2%	18%	22%	-14%
CN(C)C(=O)CSc1n[nH]c(=O)[nH]c1=O	7%	-15%	1%	nt	-10%	1%	nt	-16%
O=C(Nc1cccnc1Cl)C1c2ccccc2Oc2ccccc21	15%	-1%	4%	2.6%	?	?	1%	-14%
CCC(Sc1nncn1C)C(=O)Nc1cc(C)on1 (stereo not drawn)	-4%	7%[46.1 µM]	1%	nt	1%[46.1 µM]	0%	nt	20%
O=C(c1ccc(Br)cc1)c1cn[nH]c1-c1ccccc1O	6%	?	3%	nt	?	0%	nt	9%
Cc1ccc(N=C2CCCCCN2C)c(C#N)c1	-2%	22%	11%	-0.8%	15%	-8%	-12%	27%
O=C(CN1CCCCCC1)Nc1ccccc1OC(F)F	-21%	?	4%	nt	?	3%	nt	-7%
C=C(C)CSc1nc2ncc(Cl)cc2[nH]1	2%[3.69 µM]	-2%	-17%	-16%	12%	3%	-29%	-1%
O=C(NCC(=O)N(Cc1cccs1)C(C(=O)NC1CCCCC1)c1cccnc1)c1ccco1 (stereo not drawn)	0%	-1%	-6%	-1.8%	0%	-1%	-2%	-4%

More compounds follow:
SMILES	RE007 growth inh	Lassa entry inh	NS1 function inh	Cruzain Triton	MARV entry inh	SARS PLP yeast	Cruzain inh noDet	2A StopGo
COc1ccc(OCC(=O)NC(=S)N2CCCc3ccccc32)cc1	-30%	?	14%	0.6%	20%	4%	-19%	13%
CCOC(=O)c1c(N)nn(C(=O)CC)c1-c1ccccc1	?	-11%	-20%	-0.7%	15%&15%	-10%	-7%	-15%
CCCOC(=O)C1C2C=CC3(CN(c4cccc(Cl)c4)C(=O)C13)O2 (stereo not drawn)	4%	-2%	-7%	-10%	1%	0%	-6%	-19%
COCCn1c(=S)[nH]c2cc(C(=O)NC(C)C)ccc2c1=O	-6%	12%	20%	1.7%	?	6%	-6%	-6%
CC(C)c1ccccc1OCCNC(=O)c1cccnc1	0%	16%[46.1 µM]	nt	nt	-29%[46.1 µM]	0%	nt	?
CC(O)[C@H]1CN=C(N)N1CCCCC1CCCCC1 (stereo partly drawn)	10%	nt	1%	nt	nt	0%	nt	-13%
CCn1c2ccccc2c2cc(NC(=O)COc3ccc(C)c(C)c3)ccc21	nt	8%[46.1 µM]	nt	-2.7%	-2%[46.1 µM]	nt	9%	?
CCCC(C(=O)NCC1CCCO1)N(Cc1ccccc1)C(=O)CNS(=O)(=O)c1ccccc1 (stereo not drawn)	2%	11%	-4%	nt	12%[46.1 µM]	0%	nt	5%
CN(c1ccccc1)S(=O)(=O)c1ccc(Cl)c(C(=O)NCCc2c[nH]c3ccccc23)c1	3%	?	20%	-4.6%	?	10%	?	-29%
COC(=O)c1ccccc1NC(=O)C1CCN(S(=O)(=O)c2cc(C)ccc2OC)CC1	3%	-16%	-22%	-8.4%	?	-4%	24%	-25%
Cc1ccc(Cl)cc1NC(=O)c1oc2c(c1C)-c1[nH]ncc1CC2	nt	24%[46.1 µM]	nt	2.5%	?	nt	3%	11%
CCCn1c(SCc2nc(-c3cccs3)no2)nnc1-c1ccncc1	-1%	-5%	-15%	-7.3%	-28%	2%	2%	-10%
CCOc1ccc(CC(=O)Nc2c3c(nn2C(C)(C)C)CS(=O)(=O)C3)cc1	3%	12%	1%	nt	33%	-3%	nt	2%

Screening data as filed in PubChem.
